Mtb H37Rv = Mycobacterium tuberculosis H37Rv growth inhibition, cell based, confirmatory dose response (AID 1949); hit rate 1.6% among 100,000; most inactive calls were filed without a number and no value below 0 was filed; M. tuberculosis H37Rv growth inhibition; inhibition, % at 10 µg/mL, or IC50 in µg/mL where a hit was titrated;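 active means confirmed in a dose series; inconclusive means about 50% or more but not retested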;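 further: bacteria grown 7 days with compound before Alamar blue readout; 0% = untreated bacteria and 100% = reference antibiotic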
Numbers without * were called inactive; i = inactive; ? = inconclusive. Only part of the results is shown, so the mix of outcomes need not match the whole.

Molecule	Mtb H37Rv
COc1ccc(N(CC(=O)Nc2cccc(SC)c2)S(=O)(=O)c2ccc(C)cc2)cc1Cl	i
C=CCn1c(SCc2ccccc2)nc2sc3c(c2c1=O)CC(C(C)C)OC3 (stereo not drawn)	3%
c1ccc(-c2ccc(CNCc3ccncc3)cc2)cc1	1%
O=C(Cc1ccccc1)NC(=S)NCc1ccccc1	i
O=C(c1ccc(S(=O)(=O)c2ccccc2)cc1)N1CCCc2ccccc21	10%
CCCCS(CCCC)=C1C(=O)NC(=O)N(CCc2ccc(F)cc2)C1=O	i
CCOc1ccccc1C1C(C#N)=C(N)Oc2ccc3ccccc3c21 (stereo not drawn)	i
NC(=O)CSCC(=O)Nc1ccccc1F	i
C=CCc1cc(OC)ccc1OCCOCCn1cnc2ccccc2c1=O	i
OCc1cc(Cl)c(OCc2ccc(F)cc2)c(Cl)c1	14%
COc1c(C(=O)Nc2ccc(Cl)cc2)ccc2ccccc12	47%
NC(=O)C1CCN(C2=NS(=O)(=O)c3ccccc32)CC1	i
Nc1c(S(=O)c2ccccc2)sc2nc(-c3cccs3)cc(C(F)(F)F)c12 (stereo not drawn)	i
CCc1ccc(N(CC(=O)Nc2ccccc2C(F)(F)F)S(=O)(=O)c2ccccc2)cc1	3%
COc1ccc(N(C(C)C(=O)Nc2ccc(Br)cc2F)S(C)(=O)=O)cc1 (stereo not drawn)	3%
O=C(O)c1cccc(-n2c(-c3ccc4ccccc4n3)n[nH]c2=S)c1	i
CCCCN(CC)C(=O)CSc1nc2ccccc2c(=O)n1CC1CCCO1 (stereo not drawn)	0%
CCOC(=O)CSc1nc2ccc(OCC)cc2[nH]1	?
COc1ccc(C(=O)NC2CC(C)(C)Cc3occc32)cc1 (stereo not drawn)	7%
Cc1cc(C)nc(Sc2nnc(C)c3ccccc23)n1	29%
C=CCNCCCOc1ccc(C(C)C)c(C)c1	i
COc1ccc(N2CCN(Cc3ccc(N(C)C)cc3)CC2)cc1	i
Cc1cccc(C(C)C)c1NC(=O)c1ccc(C(=O)Nc2c(C)cccc2C(C)C)nc1	i
COc1ccc(N2CCN(C(=O)N3c4ccccc4Sc4ccccc43)CC2)cc1	i
CC1CCN(C(=O)Cn2cc(C(=O)c3cccs3)c3ccccc32)CC1	i
CC1CN(C2CCN(Cc3ccncc3)CC2)CC(C)O1 (stereo not drawn)	6%
CCCc1cc(=O)oc2c(C)c(OC(=O)c3cc(OC)c(OC)c(OC)c3)ccc12	3%
O=C(COc1ccc(Cl)cc1)NC(=S)Nc1ccc(I)cn1	i
CCOc1ccccc1N(CC(=O)N1CCCCC1)S(=O)(=O)c1ccc(SC)cc1	i
COc1ccc(-c2nc3ccccc3s2)cc1N	3%
CCc1c(C)sc(NC(=O)C2CCCCC2C(=O)O)c1C(=O)OC(C)C (stereo not drawn)	i
C=CCSc1nnc(-c2ccccc2)n1-c1ccc(Cl)cc1	i
Cc1cc(N2C(=O)C3C4C=CC(C4)C3C2=O)no1 (stereo not drawn)	i
CCCC(=O)Nc1ccccc1NC(=O)CCCOc1ccccc1	i
COc1ccccc1C(=O)NNC(=O)C1CC1	i
CC(=O)NS(=O)(=O)c1ccc(NC(=O)C2CC2c2ccccc2)cc1 (stereo not drawn)	i
Cc1cc(Br)cc(C)c1NC(=O)c1ccc(F)cc1	42%
O=c1[nH]c2ccc(Br)cc2c(-c2ccccc2)c1CN1CCOCC1	41%
CCN1C(=O)C(O)(c2c[nH]c3ccccc23)c2cc(Br)ccc21 (stereo not drawn)	i
COCc1cc(C)nc(SCC(=O)Nc2ccccc2C(=O)c2ccccc2)c1C#N	i
COc1c2occc2cc2ccc(=O)oc12	i
CCCC(=O)Nc1ccccc1NC(=O)c1ccccc1OCC	i
COc1ccc(Cl)cc1C(=O)O/N=C(\N)Cc1ccc([N+](=O)[O-])cc1	1%
CCOc1ccc(-n2c(SCc3c(Cl)cccc3Cl)nnc2-c2cccnc2)cc1	i
Cc1cc(I)ccc1NC(=O)c1cccc(Cl)c1Cl	i

The closing five compounds of the part above open the next one.
Molecule	Mtb H37Rv
COc1c2occc2cc2ccc(=O)oc12	i
CCCC(=O)Nc1ccccc1NC(=O)c1ccccc1OCC	i
COc1ccc(Cl)cc1C(=O)O/N=C(\N)Cc1ccc([N+](=O)[O-])cc1	1%
CCOc1ccc(-n2c(SCc3c(Cl)cccc3Cl)nnc2-c2cccnc2)cc1	i
Cc1cc(I)ccc1NC(=O)c1cccc(Cl)c1Cl	i
Cc1ccc(C(=C2C3C=CC2C2C(=O)NC(=O)C32)c2ccc(C)cc2)cc1 (stereo not drawn)	?
O=C(Nc1ccc(S(=O)(=O)NC(=O)C2CCCCC2)cc1)c1ccccc1Cl	i
O=C(Nc1ccc(Cl)cc1)c1ccc(OC2CSC2)cc1	1%
O=C(c1cccc(Cl)c1)N1CCN(S(=O)(=O)c2ccccc2)CC1	i
O=C(c1ccc(NCc2cccnc2)c([N+](=O)[O-])c1)N1CCCCC1	i
CCOC(=O)c1ccc(NC(=O)CSc2nnc(-c3ccccc3Cl)n2CC)cc1	i
CCC(Sc1nc2ccccc2[nH]1)C(=O)Nc1ccc(NC(C)=O)cc1 (stereo not drawn)	i
COc1cccc(C(=O)Nc2ccncc2)c1OC	i
O=C(CSCC(=O)Nc1nc2ccccc2s1)Nc1ccccc1	i
Cc1cc(C)c(C)c(S(=O)(=O)n2nc(C)c(Cl)c2C)c1C	i
CCOC(=O)C(Cc1ccccc1)N1C(=O)C2CC=C(Cl)CC2C1=O (stereo not drawn)	i
COc1ccc(C(=O)Oc2ccc(Nc3ncnc4ccccc34)cc2)cc1	i
Cc1cccc(NC(=O)Nc2ccc(C(F)(F)F)cc2)c1	8.1µg/mL*
Cc1ccccc1OCC(=O)Nc1ccc(C(=O)NCC2CCCO2)cc1 (stereo not drawn)	i
CC(=O)Oc1ccc2occ(C(=O)c3ccc(C)cc3)c2c1	1%
COC(=O)c1ccc(NC(=O)CSc2nnc(COc3c(C)cccc3C)o2)cc1	i
O=C(Nc1cc(C(F)(F)F)ccc1Cl)C1CCN(S(=O)(=O)c2ccc(F)cc2)CC1	i
CCCCOc1ccc(Cl)cc1CSc1n[nH]c(C)n1	6%
Cc1ccc(S(=O)(=O)N(c2ccc(S(=O)(=O)N3CCCC3)cc2)C(F)F)cc1	i
CC(C)(CO)NC(=O)C(c1ccccc1)c1ccccc1	i
O=C(c1ccccc1F)c1cn(CC(=O)N2CCOCC2)c2ccccc12	i
COc1ccc(/C(N)=N/OC(=O)c2ccc(C)c(C)c2)cc1	7%
CCOC(=O)N1CCN(S(=O)(=O)c2cccc3ccc(C)nc23)CC1	i
CCN1CCN(CC(O)COc2c(C)cc(C)cc2C)CC1 (stereo not drawn)	i
COC(=O)c1ccc(OCCn2cnc3ccccc3c2=O)cc1	i
CC1CCc2sc(NC(=O)C3CC(Cl)=CCC3C(=O)O)c(C#N)c2C1 (stereo not drawn)	i
C=CSc1sc(Cl)c(N2CCCC2)c1[N+](=O)[O-]	2%
CCOc1cc(CNC2CCCC2)cc(Cl)c1OCc1ccccc1	6%
CCOc1ccccc1-c1nc(=S)[nH][nH]1	11%
Cc1cc(C(F)(F)F)c(C#N)c(N)c1C#N	i
CN(C)C(=O)Nc1cnc2ccccc2c1	i
CCOCC(=O)Nc1ccccc1C(C)C	i
Cn1c(=O)n(C)c2cc(S(=O)(=O)NCc3ccco3)ccc21	i
Clc1ccc(C2=CC(c3ccccc3)n3ncnc3N2)cc1 (stereo not drawn)	i
O=C(CN1C(=O)CNC1=O)Nc1cccc2ccccc12	i
CC1=C(C(=O)Nc2cc(C)ccc2C)C(c2cccc(Cl)c2)NC(=S)N1 (stereo not drawn)	i
CC1=C(C(=O)Nc2ccccc2)C(c2ccc(Cl)cc2Cl)NC(=S)N1 (stereo not drawn)	i
CCN(CC)c1ccc(NC(=S)NCC2CCCO2)cc1 (stereo not drawn)	0%
Cc1ccc(-c2cc(C(F)F)n3ncc(C(=O)N4CCC(C)CC4)c3n2)cc1	29%
COC(=O)COc1ccc2cc(-c3ccc(OC)c(OC)c3)c(=O)oc2c1	1µg/mL*
COc1ccc(NC(=O)C(Cc2ccccc2)N2C(=O)c3ccccc3C2=O)cc1 (stereo not drawn)	i
Cc1ccc(OCC(=O)N2CCCCC2)c(Br)c1	i
CCC(=O)c1ccc(OC(=O)C(C(C)C)N2C(=O)c3ccccc3C2=O)cc1 (stereo not drawn)	7%
CCC(=O)N1CCN(c2ccc(NC(=O)COc3ccc(CC)cc3)cc2)CC1	i
COc1ccc(NC(=O)c2ccc(O)cc2)cc1Cl	i
CC(=O)NCCC12CC3CC(CC(C3)C1)C2	i
O=C(CN(C1CCCCC1)S(=O)(=O)c1ccc(F)cc1)Nc1cc(C(F)(F)F)ccc1Cl	i
O=C(Nc1ccon1)c1cc(-c2ccccc2)nc2ccccc12	12%
O=C(Oc1ccc(N(C(=O)c2ccncc2)S(=O)(=O)c2ccc(Cl)cc2)cc1)c1ccncc1	i
CCC(Sc1nc(N)cc(=O)[nH]1)C(=O)NC(C)c1ccccc1 (stereo not drawn)	i
O=C1CC(SCc2nc3ccccc3[nH]2)C(=O)N1c1cccc(Cl)c1 (stereo not drawn)	i
O=S(=O)(c1ccc(-c2csc(-c3ccccc3)n2)cc1)N1CCOCC1	i
CN(C(=O)NC1CCCCC1)c1ccccc1	i
Cn1nc([N+](=O)[O-])nc1Oc1ccccc1F	i
Cc1sc(NC(=O)c2oc3ccccc3c2C)c(C#N)c1C	i
CCOc1ccccc1C(=O)Nc1nnc(C(CC)CC)s1	12%
COc1ccc(C(=O)Nc2ccccc2C(=O)NCc2ccccc2)cc1OC	i
COc1ccccc1-c1coc2cc(O)cc(O)c2c1=O	6%
C=CCN(C(=O)c1ccc2snnc2c1)c1ccccc1	5%
Cc1ccccc1-c1nc(C#N)c(NCCc2ccccc2)o1	i

Filtered by structure, those above containing a COOH group
Molecule	Mtb H37Rv
O=C(O)c1cccc(-n2c(-c3ccc4ccccc4n3)n[nH]c2=S)c1	i
CCc1c(C)sc(NC(=O)C2CCCCC2C(=O)O)c1C(=O)OC(C)C (stereo not drawn)	i
CC1CCc2sc(NC(=O)C3CC(Cl)=CCC3C(=O)O)c(C#N)c2C1 (stereo not drawn)	i

Going on with the list.
Molecule	Mtb H37Rv
O=C(NNC(=O)c1ccco1)Nc1ccc(Cl)cc1Cl	i
CCOC(=O)C1=C(c2ccccc2)NC(SC)=C(C#N)C1c1ccccc1Cl (stereo not drawn)	i
CCCc1cc(=O)[nH]c(SCC(=O)Nc2ccc(-c3nc4ccc(C)cc4s3)cc2)n1	0%
CCCC(=O)Nc1ccc(C(=O)NCc2ccccn2)cc1	i
O=C(NC(=S)N1CCN(c2ccc(C(F)(F)F)cc2[N+](=O)[O-])CC1)c1ccccc1F	9%
CCOC(=O)C(=O)Nc1cc(Cl)c(C(C#N)c2ccc(Cl)cc2)cc1C (stereo not drawn)	i
O=C(NCc1ccccc1)Nc1ccc2nsnc2c1	2%
CC(=O)Oc1ccc(NC(=O)COc2ccccc2)c(C(=O)O)c1	i
CN1CCN(CCOCCOc2ccc(Br)cc2Cl)CC1	i
CC(Nn1cnnc1)c1cc(Cl)ccc1O (stereo not drawn)	5%
CCCOc1cc2oc(=O)c(CCC(=O)OCC)c(C)c2cc1Cl	i
CCCCc1ccc(NC(=O)COc2ccc(C(=O)NCCc3ccccc3)cc2)cc1	i
CN(C)S(=O)(=O)c1ccc(NC(=S)NC(=O)c2cccs2)cc1	i
O=c1[nH]c(/C=C/c2ccsc2)c([N+](=O)[O-])c(=O)[nH]1	i
CCOC(=O)c1c(NC(=O)Cc2cccc(OC)c2)sc2c1CCCC2	2%
Cc1cc(NC(=O)CSc2nc(-c3ccco3)cc(C(F)(F)F)n2)n(-c2ccccc2)n1	i
CCN1CCCC1CNCc1ccccc1Cl (stereo not drawn)	i
COc1cc2c(cc1OC)C(c1ccc(-c3cccc([N+](=O)[O-])c3)o1)=NCC2	6%
CC1CN(c2ccc([N+](=O)[O-])cc2F)CCN1C(=O)c1ccco1 (stereo not drawn)	2%
COc1ccc(NC(=O)CSc2nnc(-c3ccccc3)n2C2CCCCC2)cc1	i
Cc1ccc(NC(=O)C2CCN(S(=O)(=O)c3ccccc3)CC2)cc1	i
COc1ccc(-n2c(C)nnc2SCC(=O)Nc2cccc(C(F)(F)F)c2)cc1	i
O=C1CN2C(=N1)N(Cc1ccccc1)c1ccccc12	i
CN1CCN(CCCOc2ccc(C(C)(C)c3ccccc3)cc2)CC1	i
COc1cc(CNc2ccc(O)cc2)cc(Cl)c1OCc1ccc(Cl)cc1Cl	10%
S=C(NCc1ccc(Cl)cc1)NN1CCOCC1	i
O=C(O)CCC(=O)NC1CCCCCC1	i
CCOC(=O)c1sc(NC(=S)NC(=O)c2cccc(Cl)c2)c(C(=O)OCC)c1C	i
Cc1c(C2Nc3ccccc3NC3=C2C(=O)CC(C)(C)C3)cnn1C (stereo not drawn)	i
COc1ccc(C(=O)N2CCN(c3cc(C)cc(C)c3)CC2)cc1OC	i
C=CCn1c(CC(=O)Nc2cccc(OC)c2)nnc1SCC(=O)Nc1ccc(C)c(Cl)c1	i
O=C(Nc1ccccc1C(=O)N1CCN(c2ccccc2)CC1)c1cccs1	i
CCc1ccc(N(CC(=O)Nc2ccc(Oc3ccccc3)cc2)S(C)(=O)=O)cc1	i

Bioassay records as filed in PubChem BioAssay.
